# Screening results from PubChem.
# UCH37 inh = human UCH37 deubiquitinating enzyme inhibition | inhibition, % (no concentration beside the values) | hit rate 0.33% among 330,000 | purified proteasome/UCH37, Ub-AMC cleavage fluorescence | AID 588478;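 active = mean of two replicates above 20%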;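 also: 0% = compound-free wells with enzyme and 100% = wells lacking proteasome; stock transfer was 100 nL into about 20 µL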
#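 Material: human UCH37 enzyme supplied as purified proteasome complex / Amount: 0.15 nM proteasome as dispensed / Buffer or medium: pH 7.4 Tris-HCl (50 mM) with ovalbumin, ATP-MgCl2, DTT / Times: preincubation 30 min, reaction 25 min, room temperature / Technique: AMC fluorescence from Ub-AMC cleavage, excitation 355 nm, emission 460 nm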
# Ecoli growth = E. coli growth inhibition; AID 1053175; hit rate 0.21% among 330,000; OD600 absorbance (no concentration beside the values); Escherichia coli growth, OD600, 23 h; active compounds read low;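 active = OD600 absorbance below the run mean of sample wells minus 3.6 SD, in any replicate, cut at about 0.56 in these data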;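 also: stock transfer was 300 nL into about 60 µL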
# HNF4A DNA FP = change in binding of human HNF4 alpha to DNA; P41235; HNF4a-FITC DNA binding, fluorescence polarization, 1 h; activity change, % at 10 µM; hit rate 0.3% among 360,000; AID 1224865; in the data active = activity change above about 30%, passing the limit was not always enough;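 also: controls were the assay level and a saturating level of protein; the project sought stronger binding though the title names inhibitors; some compounds called inactive have numbers as strong as hits; positive values seem to mean higher polarization but the record does not say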
# Target sequence (P41235 whole entry, looked up): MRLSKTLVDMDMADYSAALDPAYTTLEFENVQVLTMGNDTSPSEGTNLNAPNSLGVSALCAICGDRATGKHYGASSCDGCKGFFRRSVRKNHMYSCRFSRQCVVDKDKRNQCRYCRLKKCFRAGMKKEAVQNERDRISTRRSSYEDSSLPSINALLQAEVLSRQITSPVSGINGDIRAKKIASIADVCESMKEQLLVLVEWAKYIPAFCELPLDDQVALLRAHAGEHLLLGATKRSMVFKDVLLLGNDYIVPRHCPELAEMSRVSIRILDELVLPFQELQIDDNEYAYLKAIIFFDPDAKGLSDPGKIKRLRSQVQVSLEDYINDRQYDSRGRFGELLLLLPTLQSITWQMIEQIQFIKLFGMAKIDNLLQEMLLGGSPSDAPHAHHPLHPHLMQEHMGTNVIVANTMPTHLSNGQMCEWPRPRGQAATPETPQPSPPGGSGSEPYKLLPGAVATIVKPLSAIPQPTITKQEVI
# LANA-H2A inh = blocks KSHV LANA binding to histone H2A/H2B. hit rate 0.6% among 320,000. inhibition, % (no concentration beside the values). Q9QR71. cell-free LANA-H2A/H2B peptide, fluorescence polarization; in the data active = inhibition mostly above about 10%, no sharp cut-off; inactive = mostly below about 6.7%;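 also: stock transfer was 7.5 nL into about 10 µL; 0% = median of vehicle wells and 100% = median of positive control wells; one replicate is shown; the record names a cut of 25% in any replicate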
# ALR H2O2 inh = human ALR oxidase inhibition via reduced H2O2. P55789. AID 485317. inhibition, % (test concentration not listed). hit rate 3.8% among 290,000. purified ALR, DTT oxidation, H2O2 HRP-luminol luminescence;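 active = mean and each replicate at 75% or more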;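 also: stock transfer was 7.5 nL into about 7.5 µL; 0% = neutral wells and 100% = wells with inactivated enzyme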
# Target sequence (P55789 whole entry, looked up): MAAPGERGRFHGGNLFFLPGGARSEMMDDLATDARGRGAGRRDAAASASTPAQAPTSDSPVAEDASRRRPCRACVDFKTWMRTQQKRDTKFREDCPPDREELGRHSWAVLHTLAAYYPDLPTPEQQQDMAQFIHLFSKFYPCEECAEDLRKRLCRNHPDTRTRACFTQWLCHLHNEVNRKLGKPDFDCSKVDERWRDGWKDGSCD
# Beta2AR agonist = activates human beta-2 adrenergic receptor causing internalization | Am2.2-beta2AR cells, FAP receptor internalization, flow cytometry; reference of the scale not given here | response, % (concentration not given with the values) | AID 504454 | P07550 | hit rate 0.43% among 340,000;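 active = response above a set limit, near 3 SD of response in nonfluorescent compounds, cut at about 42% in these data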;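 also: stock transfer was 100 nL into about 11 µL; a reference agonist was the positive control; negative values mostly stem from fluorescent compounds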
# FGF22 binding = FGF22 (human) thermal shift binding; Q9HCT0; recombinant FGF22 thermal shift, SYPRO orange fluorescence; percent of sucrose octasulfate shift, DMSO zero; calls only at 9.99 µM; hit rate 1.5% among 340,000;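 active = melting point raised past a set limit in the mean and every replicate; three in four hits are not shown here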
# Target sequence (Q9HCT0 whole entry, looked up): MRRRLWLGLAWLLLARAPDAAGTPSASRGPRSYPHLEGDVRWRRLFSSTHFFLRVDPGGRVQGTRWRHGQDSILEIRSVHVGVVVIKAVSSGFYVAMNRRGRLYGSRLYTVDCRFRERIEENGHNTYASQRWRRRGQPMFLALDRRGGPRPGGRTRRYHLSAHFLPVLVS
# Active calls of the source: *; i = inactive; nt = not tested or not shown; + = active, no number. Some of the compounds tested; count on the stated rates, not on these rows.
SMILES,UCH37 inh,Ecoli growth,HNF4A DNA FP,LANA-H2A inh,ALR H2O2 inh,Beta2AR agonist,FGF22 binding
O=C(Nc1cc([N+](=O)[O-])c2[nH]c(=O)c3ccccc3c2c1)C(F)(F)F,nt,nt,0.2,nt,nt,-11,i
COCC1CCN(C(=O)c2ccc3oc(Cc4ccc(Cl)cc4)nc3c2)C1 (centres undefined),2.9,0.67,-0.7,4.5,-1,-2,i
Cn1c(N)c(N2CCN(c3ccccc3)CC2)c(=O)[nH]c1=O,4.3,0.68,-3.3,2.3,98*,5,i
COC(=O)[C@@H](Cc1c[nH]c2ccccc12)NC(=O)CCC(=O)c1ccc(F)cc1,-0.1,0.66,1.4,-1.8,-8,13,i
CCOC(=O)N/N=C1\CCS(=O)(=O)c2ccc(Cl)cc21,nt,nt,5.0,2.4,2,-10,i
COC(=O)c1c(NC(=O)c2ccc(C)c(S(=O)(=O)Nc3ccccc3C)c2)sc2c1CCCC2,-272,0.69,5.3,1.3,-1,-4,nt
O=C(CCNc1cc(Cl)cc(Cl)c1)c1ccco1,1.2,0.69,4.0,-9.4,8,-8,nt
C/C(CC(C)(C)C1CCCCC1)=N\NC(N)=S,nt,nt,-3.1,4.8,1,0,nt
COc1cccc(NC(=O)CN2C(=O)COc3ccc(C)cc32)c1,1.7,0.72,0.4,-3.7,nt,0,i
O=C(NCC(O)c1ccccc1)c1ccc(Cl)c(S(=O)(=O)N2CCCCC2)c1 (centres undefined),2.5,0.69,1.2,2.4,-2,0,i
NC(=O)c1ccsc1NC(=O)CSc1nnc(NC2CC2)s1,2.9,0.66,8.1,0.9,9,-11,i
COc1ccc(N2CCN(c3nc(Nc4ccc(C)c(F)c4)nc(N4CCCC4)n3)CC2)cc1,4.4,0.73,-4.5,-8.2,-2,3,nt
NC(N)=NC1=NC(=O)C(Cc2ccccc2)S1 (centres undefined),-1.0,0.7,2.6,-4.9,-3,1,i
O=C(NCCCN1CCN(Cc2ccccc2Cl)CC1)Nc1ccccc1,-0.6,0.69,1.9,-0.5,-7,-8,nt
Cc1nc(C(C)NC(=O)CCc2nnc(CCCc3ccccc3)o2)c(C)s1 (centres undefined),3.2,0.7,0.8,9.1,2,-2,i
CC(C)OC(=O)COc1ccc(-c2ccccc2)cc1,0.9,0.68,0.7,-1.8,-6,-5,nt
Cc1nnc(-c2cnn(C)c2N)n1CCCN(C)C,3.9,0.74,2.4,-0.3,nt,5,i
Cc1ccc(C)c(S(=O)(=O)N(C)c2ccc(OC(=O)CN3C(=O)NC4(CCCC4)C3=O)cc2)c1,0.3,0.69,-0.1,nt,nt,0,i
Cc1ccc2oc(-c3ccc(NC(=O)c4ccc5c(c4)OCO5)cc3)nc2c1,-152,0.74,8.4,-0.2,-4,4,nt
Cc1c(NC(=O)COC(=O)CCC(=O)c2ccc(Cl)cc2)c(=O)n(-c2ccccc2)n1C,5.3,0.68,-0.9,-12,0,-6,nt
O=C(CCc1ccc(S(=O)(=O)N2CCOCC2)cc1)Nc1cc(Cl)ccc1N1CCOCC1,-1.2,0.75,-3.6,-1.4,-4,-5,nt
N#Cc1c(Nc2ccccc2)sc(C(=O)c2ccccc2)c1N,2.9,0.7,2.6,1.7,50,3,nt
O=C(O)c1ccc2nc(-c3ccccc3)sc2c1,3.7,0.68,-2.3,-0.3,nt,-1,nt
CCN(CC)c1ccc(NC(=O)CSc2n[nH]c(-c3ccco3)n2)cc1,0.5,0.66,-1.1,nt,nt,10,i
O=C(Nc1ccc(N2CCN(C(=O)c3ccco3)CC2)cc1)c1ccccc1,0.7,0.67,-0.7,1.7,-13,1,i
CCS(=O)(=O)Nc1cccc(C2=NN(C(=O)c3ccco3)C(c3ccco3)C2)c1 (centres undefined),-1.2,0.69,1.1,-2.7,-1,-20,i
CCc1ccc(Nc2nnc(SCC(=O)Nc3sccc3C(N)=O)s2)cc1,3.7,0.66,3.3,0.4,3,17,nt
Cc1ccc(S(=O)(=O)n2nc(OC(=O)c3cccc(F)c3)cc2N)cc1,1.9,0.67,0.0,4.8,11,-1,i
CCOC(=O)c1c(NC(=O)c2ccccc2)sc2c(O)c(CN(CC)CC)ccc12,-13,0.73,1.0,-6.0,-6,-11,nt
O=C(NCc1cccnc1)C(=O)NC1CCCCC1,3.0,0.71,-2.8,3.5,-4,-14,i
CN1CCN(C2=NC(=O)/C(=C/c3ccccc3OS(=O)(=O)c3ccccc3)S2)CC1,6.1,0.68,2.2,2.8,-3,13,i
COc1ccc(CNC(=O)C/C(C)=N/NC(=O)C23CC4CC(CC(C4)C2)C3)cc1,nt,nt,-3.8,2.2,-12,4,nt
Cc1cccc(/C(N)=N/OC(=O)c2cccc3ccccc23)c1,nt,nt,-0.1,0.9,2,3,i
COC(=O)c1cccc(NC(=O)c2onc3c2CCCC3)c1,1.2,0.7,-1.5,-3.6,-3,3,i
Cn1cccc1/C=N/N1CCN(c2ccccc2)CC1,nt,nt,1.3,5.0,94*,-1,i
O=C(Cn1cnc2ccccc2c1=O)N1CCN(S(=O)(=O)c2ccc(F)cc2)CC1,-3.6,0.65,4.4,0.1,-5,-2,i
CC(C)CC1NC(=S)N(Cc2ccccc2)C1=O (centres undefined),0.3,0.74,3.1,-8.1,-8,-12,i
Cc1cccc(NC(=O)CSc2nc(N)cc(N)n2)c1,0.6,0.68,2.0,-3.3,-19,-1,nt
CCOc1ccc(NC(=O)CSc2nc(C3CC3)nc3ccccc23)cc1,2.8,0.65,-4.2,1.1,2,-6,nt
CS(=O)(=O)N(CC(=O)NC1CCCCC1)Cc1ccc(Cl)cc1,0.5,0.66,-0.7,-1.7,-5,-15,nt
Cc1cc(C)cc(OCC(=O)NCc2cc(C)nc3ccccc23)c1,-0.4,0.72,-1.0,-0.7,-4,-7,i
C/C(=N\NC(=O)CNc1cccc(Cl)c1C)C1CC1,nt,nt,-2.0,4.5,22,0,i
COc1ccc(CCNC(=O)Cn2c(=O)n(Cc3ccco3)c(=O)c3ccc(Cl)cc32)cc1OC,4.5,0.82,-1.8,nt,nt,0,nt
COc1ccc(-c2c(=O)n(OCc3ccccn3)c3ccccc3[n+]2[O-])cc1OC,8.9,0.71,0.2,-1.6,-20,0,nt
O=C(CN1CCC(C(=O)c2cccc(Cl)c2)CC1)Nc1cccc(C(=O)O)c1,0.4,0.71,3.1,12,-1,-1,i
COc1ccc(N2CCN(c3nc(=S)n(-c4ccccc4)c(C)c3C(C)=O)CC2)cc1,0.1,0.66,12,-4.9,57,-7,nt
CC(=O)Nc1ccc(S(=O)(=O)NCCC(=O)Nc2ccc(C)c(F)c2)cc1,1.9,0.65,-0.6,5.1,0,-4,i
Nn1c(CSc2ccccn2)nc2ccccc2c1=O,18,0.68,1.4,-0.1,2,-2,nt
CN1CCN(CC(=O)Nc2sc3c(c2C(=O)Nc2ccccc2)CCCC3)CC1,3.6,0.72,6.2,6.1,5,7,i
O=C(c1cn(-c2ccccc2)nc1-c1cccs1)N1CCN(c2ccccn2)CC1,3.9,0.69,-0.9,1.1,-6,-7,nt
CSc1ccc(CN2CCN(C(=O)CC(C)C)CC2)cc1,-0.6,0.64,-3.5,2.3,-7,-3,i
CN(C)CCn1c(=O)n(-c2ccc(F)cc2)c(=O)c2c3c(sc21)CCCCC3,4.0,0.66,0.0,1.4,-5,-15,i
O=C(N/N=C\c1ccccn1)c1cccc(C(=O)N/N=C\c2ccccn2)n1,nt,nt,-2.5,-0.6,0,-12,i
Cc1sc2ncnc(OCC(=O)N3CC(=O)Nc4ccccc43)c2c1C,0.9,0.69,-1.7,-3.7,1,1,i
O=C(NCC1CCCN1S(=O)(=O)c1cccs1)c1cccc(F)c1 (centres undefined),2.0,0.67,2.5,-0.1,nt,-5,i
CN1/C(=C\C(=O)c2cccc([N+](=O)[O-])c2)Sc2ccccc21,3.3,0.65,-3.3,-4.5,-12,-18,+
O=C(Cc1cccc(NC(=O)C2CCN(C(=O)C3CCCC3)CC2)c1)Nc1cccc(C(=O)N2CCOCC2)c1,5.3,0.67,-0.8,nt,nt,-7,i
CCOc1cc(NC(=O)c2ccco2)c(OCC)cc1NC(=O)c1cc(OC)c(OC)c(OC)c1,-380,0.74,-4.0,-0.6,-118,1,nt
O=[N+]([O-])c1ccc2nc(-c3ccccc3)n(OCc3ccc(Cl)cc3)c2c1,3.1,0.76,-8.4,-3.9,nt,-1,nt
COc1ccc([N+](=O)[O-])cc1NC(=O)Nc1cccc(Cl)c1,5.2,0.66,-2.2,1.9,-12,0,nt

# Among those listed so far, 2 contain a COOH group:
SMILES,UCH37 inh,Ecoli growth,HNF4A DNA FP,LANA-H2A inh,ALR H2O2 inh,Beta2AR agonist,FGF22 binding
O=C(O)c1ccc2nc(-c3ccccc3)sc2c1,3.7,0.68,-2.3,-0.3,nt,-1,nt
O=C(CN1CCC(C(=O)c2cccc(Cl)c2)CC1)Nc1cccc(C(=O)O)c1,0.4,0.71,3.1,12,-1,-1,i

# The list continues.
SMILES,UCH37 inh,Ecoli growth,HNF4A DNA FP,LANA-H2A inh,ALR H2O2 inh,Beta2AR agonist,FGF22 binding
Cc1nc2cccc(C(=O)NCc3ccccc3)c2o1,-4.0,0.74,-2.7,4.1,-2,7,nt
Cc1ccsc1C(=O)N1CCCC(C(=O)c2cc(F)ccc2F)C1 (centres undefined),1.2,0.68,-1.5,0.9,nt,11,i
COc1cccc(/C=N/NC(=O)c2[nH]c(C)c(C(=O)N/N=C/c3cccc(OC)c3O)c2C)c1O,nt,nt,1.7,-3.2,-8,24,nt
Cc1noc(C)c1S(=O)(=O)N(Cc1ccccc1)C(C)C,0.1,0.7,0.8,2.7,1,-7,i
N#Cc1cccc(S(=O)(=O)NCC(=O)OCC(=O)NCc2ccccc2)c1,-0.3,0.7,1.2,nt,nt,0,i
COc1cccc(CNc2ccc(S(=O)(=O)N3CCCC3)cn2)c1,0.6,0.72,-2.1,0.1,-2,2,i
COc1cc(C(=O)NCC(=O)N/N=C(/C)c2ccc3c(c2)CCCC3)cc(OC)c1OC,nt,nt,1.2,-0.6,-8,4,i
Cc1ccc(N2C(=O)C3C4C=CC(CNC(=S)N5CCN(c6ccccn6)CC5)(O4)C3C2=O)cc1 (centres undefined),nt,nt,-2.8,-0.9,-5,-1,i
COc1cc(/C=C/C(=O)OCC(=O)NCCCc2ccccc2)ccc1O,-5.0,0.7,-0.9,-1.2,93*,-2,i
O=C(COC(=O)C1=COCCO1)Nc1ccc2c(c1)OCO2,4.6,0.68,-1.1,0.6,-15,8,nt
O=C(Nc1ccc(C(=O)O)cc1)/C(=C\C=C\c1ccccc1)NC(=O)c1ccc(Br)cc1,12,0.66,-1.8,4.0,5,1,nt
CCOc1ccc(N(Cc2nnc3n2CCCCC3)C(=O)Nc2cccc(C)c2)cc1,-2.5,0.7,1.0,-3.7,-10,-3,i
COc1cccc(COC(=O)C2CCN(S(=O)(=O)c3ccc(Cl)cc3)CC2)c1OC,0.2,0.65,3.7,2.6,-7,-4,i
CN(CC(=O)Nc1ccc(F)cc1)C(=O)COC(=O)CCN1C(=O)C2CC=CCC2C1=O (centres undefined),0.8,0.72,-2.0,2.1,1,-3,i
CC1=C(C(=O)OCc2ccccc2)C(c2ccc(Br)cc2)NC(=O)N1CCCC(=O)O (centres undefined),0.2,0.69,nt,1.2,nt,nt,i

# Complete entries from above:
# Cc1ccsc1C(=O)N1CCCC(C(=O)c2cc(F)ccc2F)C1 (centres undefined) is entered as UCH37 inh: 1.2; Ecoli growth: 0.68; HNF4A DNA FP: -1.5; LANA-H2A inh: 0.9; ALR H2O2 inh: nt; Beta2AR agonist: 11; FGF22 binding: i
# COc1cc(C(=O)NCC(=O)N/N=C(/C)c2ccc3c(c2)CCCC3)cc(OC)c1OC is entered as UCH37 inh: nt; Ecoli growth: nt; HNF4A DNA FP: 1.2; LANA-H2A inh: -0.6; ALR H2O2 inh: -8; Beta2AR agonist: 4; FGF22 binding: i
